Source: PubChem BioAssay
CHT block = inhibitors of human choline transporter CHT | High affinity choline transporter 1 (Homo sapiens), Q9GZV3 | CHT-expressing cells, membrane potential dye, choline response; stronger effect = lower value | B-score at 10 µM | 310,000 compounds, 0.86% hits;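 active = B-score over 3 SD under the library average, and starting fluorescence ratio not unusually high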;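 note: choline stimulus applied at its EC90 after an EC20 pre-addition; B-score computed on integrated fluorescence ratio after choline addition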
Target sequence (Q9GZV3 whole entry, looked up): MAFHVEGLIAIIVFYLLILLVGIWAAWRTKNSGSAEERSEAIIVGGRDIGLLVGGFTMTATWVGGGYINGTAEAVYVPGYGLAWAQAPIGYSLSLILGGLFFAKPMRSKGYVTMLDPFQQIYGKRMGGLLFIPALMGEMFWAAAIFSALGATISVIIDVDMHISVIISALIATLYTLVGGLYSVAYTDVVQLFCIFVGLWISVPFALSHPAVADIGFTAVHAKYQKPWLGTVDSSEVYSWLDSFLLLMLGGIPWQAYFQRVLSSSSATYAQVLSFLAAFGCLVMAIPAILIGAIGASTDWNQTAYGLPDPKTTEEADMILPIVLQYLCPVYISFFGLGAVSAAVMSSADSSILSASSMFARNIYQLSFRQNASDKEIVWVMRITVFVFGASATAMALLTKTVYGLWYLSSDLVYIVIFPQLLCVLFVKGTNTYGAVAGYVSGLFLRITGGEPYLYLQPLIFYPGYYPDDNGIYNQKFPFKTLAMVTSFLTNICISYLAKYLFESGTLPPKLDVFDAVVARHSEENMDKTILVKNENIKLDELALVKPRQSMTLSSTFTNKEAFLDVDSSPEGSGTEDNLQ
Kir21 block = inhibitors of mouse Kir2.1 inward-rectifier potassium channel. HEK293-Kir2.1, FluxOR thallium flux fluorescence; stronger effect = lower value. B-score at 10 µM. 310,000 compounds, 0.85% hits. AID 1672, 2009;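 active = fluorescence ratio B-score at or below minus 3 SD of library scores, with starting-brightness B-score within 2 SD, cut at about -4.2 in these data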;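 note: channel flux triggered by added potassium and thallium sulfate stimulus; B-score of peak minus minimum fluorescence over baseline after thallium stimulus; more negative B-score means stronger Kir2.1 block with less thallium influx; some compounds called inactive have numbers as strong as hits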
Target sequence (P35561 whole entry, looked up): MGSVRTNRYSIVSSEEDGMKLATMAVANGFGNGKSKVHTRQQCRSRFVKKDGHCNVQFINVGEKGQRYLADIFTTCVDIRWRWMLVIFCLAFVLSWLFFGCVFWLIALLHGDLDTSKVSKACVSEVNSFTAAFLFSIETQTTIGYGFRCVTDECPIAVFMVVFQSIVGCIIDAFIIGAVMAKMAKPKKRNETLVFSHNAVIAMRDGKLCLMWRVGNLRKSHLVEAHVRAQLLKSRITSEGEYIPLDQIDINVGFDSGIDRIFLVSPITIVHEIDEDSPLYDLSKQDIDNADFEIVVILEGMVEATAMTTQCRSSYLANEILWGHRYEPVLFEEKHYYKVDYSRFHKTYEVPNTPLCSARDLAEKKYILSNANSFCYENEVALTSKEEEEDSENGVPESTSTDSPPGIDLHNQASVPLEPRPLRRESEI
Starred values were filed as active, the others as inactive; i = inactive. This is a subset; most or all hits stand in other tables.

SMILES	CHT block	Kir21 block
COc1ccc2nc(N3C(=O)CC(Cc4cc(C)cc(C)c4)C3=O)sc2c1 (centres undefined)	i	1.1
COc1ccc(CC(=O)N2CCN(c3ccccc3OC)CC2)cc1OC	i	-1.5
CCN(CC(=O)Nc1cc(OC)ccc1OC)Cc1nc2ccccc2c(=O)[nH]1	i	0.35
CC(=O)OCC1OC(c2ccccc2)C(OC(C)=O)C(OC(C)=O)C1OC(C)=O (centres undefined)	i	-1.7
COc1ccc2c(c1)c1nnc(SCC(=O)NC3CC3)nc1n2C	i	-1.1
O=c1oc(-c2cccc(Cl)c2)nc2c1cnn2-c1ccccc1	i	1.3
CC(C)N1CCc2c(sc(NC(=O)CN3C(=O)c4ccccc4C3=O)c2C(N)=O)C1	i	0.2
CCn1cc(C(=O)O)c(=O)c2cc(Br)ccc21	i	1.9
O=C(Nc1cc(Cl)ccc1-n1cncn1)C1CC1	i	-0.07
O=C(NN1C(=O)/C(=C/C=C/c2ccco2)SC1=S)c1ccccc1O	i	2.7
O=C(NNC(=O)c1ccccc1F)c1cccc(Cl)c1	i	0.34
Cc1ccc(S(=O)(=O)N2CCCCC2)cc1NC(=S)NC(=O)c1ccco1	i	1.5
COc1ccc(C(=O)/C=C/c2ccc(OC)c(COc3ccccc3F)c2)cc1	i	1.9
COc1ccccc1C(=O)Nc1ccc(C(=O)/C=C/c2cccs2)cc1	i	-0.01
CCCn1c(=S)[nH]c2cc(Cl)ccc21	i	1.1
O=C(Nc1ccccn1)c1cc(-c2cccnc2)nc2ccc(Br)cc12	i	-0.4
O=C(c1ccc(NC2=NC3CS(=O)(=O)CC3S2)cc1)N1CCN(Cc2ccccc2)CC1 (centres undefined)	i	1.2
N/C(COc1cc(Cl)cc(Cl)c1)=N\O	i	-2.1
COc1cccc2cc(C(=O)NCc3ccco3)c(=Nc3ccc(C(=O)O)cc3)oc12	i	1.9
O=C(NCc1ccco1)C1CCN(C(=O)c2cc3sccc3n2Cc2ccc(F)cc2)CC1	i	-0.23
Cc1c(C(=O)N2CCN(c3ccccc3F)CC2)oc2c1C(=O)CC(C)(C)C2	i	0.91
C=CCn1c(=O)c2c(C)c(C)sc2n2c(Nc3ccccc3)nnc12	i	-1
CCOC(=O)C1CCN(CC(=O)c2c(C)[nH]c3ccccc23)CC1	i	0.67
COc1ccc2nc(NC(=O)CCNC(=O)c3ccccc3Cl)sc2c1	i	2
Cc1ccc(C(=O)NS(=O)(=O)c2ccc(C)cc2)cc1	i	0.01
COC(=O)c1cnn(-c2cc(Oc3ccccc3)ncn2)c1N	i	2.3
Nn1c(=S)[nH]nc(Cc2ccc(O)cc2)c1=O	i	0.09
CCOC(=O)N1CCN(C(=O)c2ccc(NS(=O)(=O)c3ccc4[nH]c(=O)[nH]c4c3)cc2)CC1	i	-1.1
CCN(CC)CCNC(=O)CCCNC(=O)Cn1cnc2sc(C)c(C)c2c1=O	i	1.2
N#Cc1ccc(C(=O)Nc2cccc3ncccc23)c(F)c1	i	1.3
COc1ccccc1Nc1cc(C(=O)NC2CCCC2)c2ccccc2n1	i	-0.09
Cc1nn(C)cc1CNC(=O)CCC(=O)O	i	-0.89
Cc1ccc(C)c(Nc2c([N+](=O)[O-])c(=O)oc3ccccc23)c1	i	1
COc1ccc(CCNC(=O)c2c(Cl)ccc(Cl)c2OC)cc1OC	i	0.98
COc1ccc(C(C)C)cc1S(=O)(=O)NCc1ccccn1	i	-0.03
Cc1ccc(S(=O)(=O)N(CC(O)CN2C(=O)NC(C)(C)C2=O)c2ccccc2)cc1 (centres undefined)	i	-0.04
CCc1c(C)nc2nc(NC(C)=O)[nH]n2c1=O	i	-0.77
Cc1nc(SCC(O)CCl)c([N+](=O)[O-])[nH]1 (centres undefined)	i	0.86
O=S(=O)(c1cccc(C(F)(F)F)c1)N1CCN(C(=S)NCc2ccco2)CC1	i	0
COc1ccc(C)cc1N(CC(=O)N1CCCCCC1)S(C)(=O)=O	i	-0.24
COc1ccc(S(=O)(=O)NCC(c2ccco2)N2CCc3ccccc32)cc1 (centres undefined)	i	-0.49
Cc1cccc2c(=O)c(C(=O)NCc3ccc(F)cc3)c[nH]c12	i	0.03
COCCNC(=O)c1ccc(-n2c(SCc3cccnc3)nc3ccccc3c2=O)cc1	i	-0.85
Cc1cc(C)c(C#N)c(SCC(=O)Nc2nnc(-c3ccccc3)s2)n1	i	0.98
CCC(C)c1ccccc1NS(=O)(=O)c1cnn(CC)c1 (centres undefined)	i	-3.2
N#CCCN(C(=O)COC(=O)c1ccc2c(=O)n3c(nc2c1)CCC3)c1ccccc1	i	0.13
CCNS(=O)(=O)c1ccc(NC(=S)NCc2ccco2)cc1	i	1.4
O=[N+]([O-])c1ccc(/C=N/NC(=S)Nc2ccccc2)o1	i	-1.1

Some of these compounds in order of length of the SMILES, highest first:
SMILES	CHT block	Kir21 block
Cc1ccc(S(=O)(=O)N(CC(O)CN2C(=O)NC(C)(C)C2=O)c2ccccc2)cc1 (centres undefined)	i	-0.04
COc1ccc2nc(N3C(=O)CC(Cc4cc(C)cc(C)c4)C3=O)sc2c1 (centres undefined)	i	1.1
CCNS(=O)(=O)c1ccc(NC(=S)NCc2ccco2)cc1	i	1.4

The list goes on:
SMILES	CHT block	Kir21 block
Cc1ccc(-c2n[nH]c(=O)c3ccccc23)cc1N	i	0.51
CCN(CC)CC(C)(C)NS(=O)(=O)c1ccc(Cl)cc1	i	2.3
COCCNC(=O)c1ccccc1-c1nc(-c2ccccc2Cl)no1	i	0.6
CN(C(=O)C1CCOC1)c1nnc(-c2cccnc2)s1 (centres undefined)	i	1.6
CCOC(=O)C1C(c2ccccc2)C(C(=O)OCC)C1c1ccccc1 (centres undefined)	i	1.1
CCCCn1c(SCC(=O)N2CCOCC2)nc2c1c(=O)n(C)c(=O)n2C	i	0.27
Cc1ccc(C)c(CNS(=O)(=O)c2c(C(=O)N3CCCC3)c(C)n(C)c2C)c1	i	-0.87
O=C(c1ccc(OC2CCN(Cc3ccccn3)CC2)cc1)N1CCCC(O)C1 (centres undefined)	i	-1.3
C=CCn1c(-c2ccc(OC)c(OC)c2)cs/c1=N\c1ccccn1	i	-1.3
ONC(=Nc1ccccc1)c1ccc(Cl)cc1	i	-0.02
CCCn1c(SC(C)C(=O)NCC2CCCO2)nc2sc3c(c2c1=O)CCC3 (centres undefined)	i	-0.69
COc1ccc(NS(=O)(=O)c2ccc3c(c2)oc(=O)n3C)c(OC)c1	i	0.02
O=C(Cc1cccs1)Nc1ccc2c(c1)C(=O)OC2	i	-0.41
COc1cccc(C2=CC(c3ccc(C)cc3)n3ncnc3N2)c1 (centres undefined)	i	-3
O=C(N/N=C/c1coc2ccc(Cl)cc2c1=O)c1cc(O)cc(O)c1	i	-0.9
Cc1ccc(NC(=S)NN2CCOCC2)c(C)c1	i	-2.6
Cn1c(N2CCCC2)nc2c1c(=O)n(Cc1cccc(F)c1)c(=O)n2C	i	-1.4
Cc1noc(C)c1S(=O)(=O)Nc1ccc(C(=O)NC2CCCCC2)cc1	i	-0.9
O=c1[nH]c(=O)n(C2OC(CO)C(O)C2O)cc1Br (centres undefined)	i	0.24
CC(=O)C1C(c2ccccc2Cl)NC(=O)NC1(O)C(F)(F)F (centres undefined)	i	-0.18
O=c1c2cccnc2nc2n1CCCCC2	i	0.02
Cc1ccc2oc(=O)n(CC(=O)OC(C)C)c2c1	i	0.77
O=C(Nc1ccc2c(c1)nc1n2CCN(C2CCCCC2)C1)NC1CCCCC1	i	-2.4
O=C(Nc1cccc(-c2nnc(-c3ccco3)o2)c1)C(c1ccccc1)c1ccccc1	i	-1.8
CCNC(=O)CC1SC(=Nc2ccc(C)cc2)NC1=O (centres undefined)	i	0.28
COc1ccc(-c2nc(C3CCCCC3)no2)cc1OC	i	-2.2
COc1ccc(NC(=O)Cn2nc([N+](=O)[O-])c(Cl)c2C)cc1OC	i	0.38
COC(=O)c1cc(OC)c(OC)cc1NC(=S)Nc1cc(Cl)ccc1OC	i	1
COc1ccc(OC)c(NC(=O)C2CCN(S(=O)(=O)c3cccs3)CC2)c1	i	1.3
Cc1ccccc1-n1nnnc1SCC(N)=O	i	0.04
COc1ccc(S(=O)(=O)N2CCCC(C(=O)NCCN3CCOCC3)C2)cc1C (centres undefined)	i	-0.49
NC(=O)c1cc(N2C(=O)C3CC=CCC3C2=O)ccc1N1CCCCC1 (centres undefined)	i	-1
CCCn1c(N2CCN(S(=O)(=O)Cc3ccccc3)CC2)nc2ccccc21	i	-0.47
COc1ccc(NC(=O)/C(C#N)=C\c2cc(C)n(-c3ccc4c(c3)OCO4)c2C)cc1	i	0.51
COc1cc(C(=O)N/N=C\c2ccccc2)c([N+](=O)[O-])c(OC)c1OC	i	0.14
O=C1NC2(CCOc3ccccc32)C(=O)N1CC(=O)N(Cc1ccccc1)C1CCS(=O)(=O)C1 (centres undefined)	i	0.47
Cc1ccc(CN2CCN(Cc3cccn3-c3ccccn3)CC2CCO)cc1 (centres undefined)	i	0.28
C#CC1(NC(=O)NS(=O)(=O)c2ccc(C)cc2)CCCCC1	i	0.88
O=c1cc[nH]c2c(C(F)(F)F)cccc12	i	-0.3
Oc1ccc(-c2nc3ncccn3c2Nc2ccc3c(c2)OCCO3)cc1	i	0.22
CC(=O)C1=C(O)C(=O)N(CCCn2ccnc2)C1c1ccc(Cl)cc1 (centres undefined)	i	2
Cc1ccc(S(=O)(=O)N2CCN(c3nccnc3C#N)CC2)cc1	i	-0.6
CC(=O)Nc1ccc(S(=O)(=O)N(C)CC(=O)OC(C)C(=O)N(C)C2CCCCC2)cc1 (centres undefined)	i	0.42
COc1cccc(CN(Cc2ccco2)S(=O)(=O)c2ccc(S(=O)(=O)NCc3ccccc3)cc2)c1OC	i	0.46
Cc1c(OCC(=O)NCCCN2CCOCC2)ccc2c3c(c(=O)oc12)CCC3	i	0.05
Cc1ccccc1C(=O)Nc1ccc(C(=O)N/N=C/c2ccc(F)cc2)cc1	i	0.05
COc1ccc2[nH]c(C)c(CCN(Cc3cccs3)C(=S)Nc3ccccc3)c2c1	i	-0.5
CCOC(=O)/C(=C\C=C\c1ccccc1)NC(=O)c1ccccc1	i	-0.71
COc1ccccc1C(=O)N/C(=C/c1ccc2c(c1)OCO2)C(=O)Nc1ccc(C(=O)O)cc1	i	0.68
COc1ccc(CN2CCCCC2C)cc1OC (centres undefined)	i	0.02
CC(/C=N/NC(=O)c1nnn(-c2nonc2N)c1C)=C\c1ccccc1	i	-3
CCOC(=O)CC(=O)Nc1nnc(CC(C)C)s1	i	1.5
Cc1cc(C)nc(N2CCCC(C(=O)Nc3cccc(Cl)c3)C2)n1 (centres undefined)	i	0.23
CCCNC(=O)N1C2=NC(C(=O)OC)=C(C(=O)OC)[C@@H]3N(Cc4ccccc4)c4ccccc4[C@]23C[C@H]1CO	i	-0.1
COc1ccc(CNC(=O)c2cc3c(=O)n4cccc(C)c4nc3n(CC3CCCO3)c2=N)cc1 (centres undefined)	i	-0.51
Cc1ccc(C)c(S(=O)(=O)N2CCN(C(=O)Cn3c(=O)cnc4ccccc43)CC2)c1	i	0.9
COc1ccc(/C=N/NC(=O)c2cccc(Br)c2)cc1CN1CCOCC1	i	-0.61
CCc1noc(C)c1C(=O)NNC(=O)COc1ccc(Br)cc1	i	-1.2
O=C(O)CCCCCN1C(=O)C(O)=C(C(=O)/C=C/c2ccccc2)C1c1ccccc1[N+](=O)[O-] (centres undefined)	i	-1.4
COc1cccc(/C(O)=C2/C(=O)C(=O)N(CCN3CCOCC3)C2c2cccs2)c1 (centres undefined)	i	-1.4

(listing goes on)
SMILES	CHT block	Kir21 block
CCN(CC)C(=O)c1cnn(-c2ccccc2)c1NC(=O)c1cccc(F)c1	i	1.5
Cc1c(C(=O)N2CCCCC2C)sc2nc3n(c(=O)c12)CCC3 (centres undefined)	i	-0.57
CCCCNC(=S)N(C)/N=C/c1c(C)[nH]c2ccccc12	i	0.87
CCN(CC)CCN1C(=O)C(O)=C(C(C)=O)C1c1ccccc1[N+](=O)[O-] (centres undefined)	i	0.86
O=C(CN1CCSC1=NCc1ccccc1)c1ccc(Cl)c(Cl)c1	i	-1.4
CCN(CC)CCN(C(=O)CCOc1ccccc1)c1nc2c(F)cc(F)cc2s1	i	0.36
Cc1nc(SCc2cccc(F)c2)c2oc3ccccc3c2n1	i	0.21
O=C(Nc1ccc2c(c1)OCO2)C1CCN(S(=O)(=O)c2cccc3cccnc23)CC1	i	-0.99
CCC(C)NC(=O)c1c(F)c(F)c(F)c(F)c1F (centres undefined)	i	0.54
COc1cccc(C(=O)N2CCCC(c3nc(-c4cccs4)no3)C2)c1 (centres undefined)	i	-2.1

In the list so far, these contain an NH in an aromatic ring.
SMILES	CHT block	Kir21 block
CCN(CC(=O)Nc1cc(OC)ccc1OC)Cc1nc2ccccc2c(=O)[nH]1	i	0.35
CCCn1c(=S)[nH]c2cc(Cl)ccc21	i	1.1
CCOC(=O)C1CCN(CC(=O)c2c(C)[nH]c3ccccc23)CC1	i	0.67
Nn1c(=S)[nH]nc(Cc2ccc(O)cc2)c1=O	i	0.09
CCOC(=O)N1CCN(C(=O)c2ccc(NS(=O)(=O)c3ccc4[nH]c(=O)[nH]c4c3)cc2)CC1	i	-1.1
CCc1c(C)nc2nc(NC(C)=O)[nH]n2c1=O	i	-0.77
Cc1nc(SCC(O)CCl)c([N+](=O)[O-])[nH]1 (centres undefined)	i	0.86
Cc1cccc2c(=O)c(C(=O)NCc3ccc(F)cc3)c[nH]c12	i	0.03
Cc1ccc(-c2n[nH]c(=O)c3ccccc23)cc1N	i	0.51
O=c1[nH]c(=O)n(C2OC(CO)C(O)C2O)cc1Br (centres undefined)	i	0.24
O=c1cc[nH]c2c(C(F)(F)F)cccc12	i	-0.3
COc1ccc2[nH]c(C)c(CCN(Cc3cccs3)C(=S)Nc3ccccc3)c2c1	i	-0.5
CCCCNC(=S)N(C)/N=C/c1c(C)[nH]c2ccccc12	i	0.87
